KCNQ2 inh – KCNQ2 potassium channel inhibitors, primary screen, cell-based, CHO-K1, FluxOR thallium flux, B-score (AID 2156); O88943; 20 min; active compounds read low; only compounds with negative scores are shown here; some inactives read as strong as hits; B-score at 10 µM; hit rate 1.1% among 310,000;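 active = fluorescence ratio B-score at most minus 3 library SDs, with starting brightness B-score within 2 library SDs, cut at about -5.5 in these data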
Target sequence (O88943 whole entry, looked up): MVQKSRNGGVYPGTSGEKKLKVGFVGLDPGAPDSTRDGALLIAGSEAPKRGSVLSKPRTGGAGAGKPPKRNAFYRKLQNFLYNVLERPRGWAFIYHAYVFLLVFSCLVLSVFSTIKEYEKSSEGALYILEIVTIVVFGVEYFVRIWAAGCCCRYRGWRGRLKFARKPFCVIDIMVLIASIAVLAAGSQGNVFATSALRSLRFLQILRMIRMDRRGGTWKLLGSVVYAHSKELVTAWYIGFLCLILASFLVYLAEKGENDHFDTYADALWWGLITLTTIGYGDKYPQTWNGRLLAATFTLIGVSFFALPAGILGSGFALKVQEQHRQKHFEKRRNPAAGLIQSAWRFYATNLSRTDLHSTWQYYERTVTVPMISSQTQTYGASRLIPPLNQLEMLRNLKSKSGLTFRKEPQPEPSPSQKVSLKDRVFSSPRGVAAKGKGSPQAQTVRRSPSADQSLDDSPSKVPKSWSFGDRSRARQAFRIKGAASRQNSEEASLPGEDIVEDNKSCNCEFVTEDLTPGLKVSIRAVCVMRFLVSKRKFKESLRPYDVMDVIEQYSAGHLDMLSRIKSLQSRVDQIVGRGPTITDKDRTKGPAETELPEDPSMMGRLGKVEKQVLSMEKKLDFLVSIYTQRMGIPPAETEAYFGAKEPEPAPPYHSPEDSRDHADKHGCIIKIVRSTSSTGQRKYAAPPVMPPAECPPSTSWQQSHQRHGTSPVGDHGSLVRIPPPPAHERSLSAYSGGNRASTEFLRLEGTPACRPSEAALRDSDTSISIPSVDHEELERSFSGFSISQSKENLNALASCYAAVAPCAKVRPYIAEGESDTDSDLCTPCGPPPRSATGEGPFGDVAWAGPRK
KCNQ2 inh baseline – second read-out of KCNQ2 inh, no call of its own (marks repeat the call); B-score; measured here: initial fluorescence intensity artifact check;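 brightness before thallium and not channel activity; 0 = typical well and far values either way flag optical interference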
Numbers without * were called inactive; i = inactive.

KCNQ2 inh baseline,KCNQ2 inh,SMILES
0.17,i,CCN1CCCC1CNC(=O)CS(=O)(=O)Cc1nc(-c2ccccc2C)oc1C (stereo not drawn)
-0.03,i,Cc1cnc(C(=O)NC2CC(C)(C)Cc3c2cnn3-c2ccccc2)cn1 (stereo not drawn)
0.32,i,CCn1nc(C)c(CN2CCC(C(=O)Nc3cccc(-c4cccc(Cl)c4)c3)CC2)c1C
1.19,i,CC1CCCN(S(=O)(=O)c2ccc3c(c2)c(=O)nc2ccc(Cl)cn23)C1 (stereo not drawn)
1.14,i,Cn1c(=O)oc2cc(S(=O)(=O)NCc3ccco3)ccc21
2.59,i,O=S(=O)(/N=C(/Nc1ccccc1)C(F)(F)F)c1ccccc1
-0.68,i,Cc1cc(C)cc(NC(=O)Nc2ccccc2N2CCCCC2)c1
0.04,i,COc1ccccc1CN(C)C(=O)c1cccc(S(=O)(=O)N2CCN(Cc3ccccc3)CC2)c1
-1.93,i,Cc1ccccc1-n1c(=O)/c(=C\c2ccco2)s/c1=C(/C#N)C(=O)Nc1ccccc1
-0.41,i,CSc1ccccc1C(=O)NC1CCCN(c2ccc(C(F)(F)F)cn2)C1 (stereo not drawn)
-0.1,i,Cc1ccc(NC(=O)c2cccc3c2C(=O)N(C2CCCCC2)C3)c(Cl)c1
-1.28,i,CS(=O)(=O)c1ccc(-n2nnc3ccccc32)c([N+](=O)[O-])c1
-0.11,i,COc1ccc(C(=O)Nc2nc3c(s2)CCCC3)cc1S(=O)(=O)N1CCCc2ccccc21
0.47,i,CCc1cccc(C)c1N1C(=O)CN(Cc2ccccc2)C1=S
0.99,i,CC(CN1C(C)CCCC1C)OC(=O)c1ccc(F)cc1 (stereo not drawn)
-0.03,i,CN(CC(=O)N1CCCCCC1)S(=O)(=O)c1cccc2cccnc12
0.59,i,COc1ccc(CNC(=O)c2cc3ccccc3oc2=O)cc1
-0.06,i,CCCc1nc2ccccc2n1CCc1ccccc1
1.28,i,COC(/C=C/Nc1ccc(Cl)cc1)=C(C#N)C#N
-0.6,i,NC(=O)Nc1ccc(C(=O)OCC(=O)Nc2ccc(Cl)cn2)cc1
-0.84,i,CC1C(=O)Nc2ccccc2N1C(=O)c1ccc(Cl)cc1 (stereo not drawn)
0.28,i,O=[N+]([O-])c1ccc2c(c1)C(N1CCOCC1)/C(=C/COc1ccc3ccccc3c1Br)O2 (stereo not drawn)
-0.69,i,O=C(COc1coc(CN2CCN(c3ccc(F)cc3)CC2)cc1=O)NCC1CCCO1 (stereo not drawn)
-1.11,i,O=[N+]([O-])c1cc(C=Nc2ccc3ccccc3c2)ccc1Br
-0.88,i,COc1ccc(OC(C)C(=O)N(C)Cc2nc(-c3cccc(C)c3)no2)cc1 (stereo not drawn)
-2.38,i,CN(c1ccccc1)S(=O)(=O)c1ccc(C(=O)N2CCc3ccccc3C2)cc1
0.7,i,CCN(CC)C(=O)Oc1ccc2cc(Br)ccc2c1
0.08,i,CCc1nc(NCc2ccco2)c2oc3ccccc3c2n1
0.46,i,COC(=O)Cn1ccc2cc(S(=O)(=O)N3CCCCCC3)ccc21
1.26,i,COc1c(O)ccc(/C=N\NC(=O)c2ccc3c(c2)OCO3)c1[N+](=O)[O-]
-1.58,i,Nc1ccnc(=O)[nH]1
-0.19,i,CCCN(CC(=O)Nc1ccccc1C)C(=O)c1ccc(N2CCCCCC2)c([N+](=O)[O-])c1
-1.28,i,Cc1ccc(CNC(=O)CCCC(=O)c2ccccc2)cc1
0.09,i,COc1ccc(/C=N/NC(=O)CCc2n[nH]c(=O)[nH]c2=O)cc1O
0.27,i,CC(Sc1nnc2c(n1)[nH]c1ccccc12)C(=O)NC1CCCCC1 (stereo not drawn)
-0.87,i,CC1Cc2cc(S(=O)(=O)NCc3ccccc3)ccc2N1C(=O)C1CC1 (stereo not drawn)
-0.33,i,Cc1c(C(=O)NCc2ccc3c(c2)OCO3)oc2ccc(Br)cc12
-0.71,i,CSCCC(NC(=O)c1cccc(C)c1)C(=O)OCC(=O)NC(=O)c1cccn1C (stereo not drawn)
0.03,i,CCCc1nnc(NC(=O)NCCN2C(=O)C3C4C=CC(C4)C3C2=O)s1 (stereo not drawn)
0.98,i,Cc1n[nH]c(=O)c2c(NC(=O)COC(=O)Cc3ccc(Cl)cc3Cl)oc(C)c12
0.91,i,CCOC(=O)c1nn(-c2ccc(F)cc2)c2nc(-c3ccccc3)c(C#N)c(=O)n12
1.29,i,O=C(Nc1cc(C(F)(F)F)ccc1N1CCCC1)c1ccc2c(c1)OCO2
0.37,i,CCOC(=O)/C(C(N)=NCC(C)C)=C(/O)c1ccccc1
-0.46,i,O=C(NCCc1ccccc1F)c1ccc2c(c1)OCCO2
1.31,i,Cc1ccc(C(F)(F)F)cc1NC(N)=S
-2.3,i,CCOC(=O)C1CCCCN1S(=O)(=O)c1ccc2c(c1)CC(C)N2C(=O)C1CCC1 (stereo not drawn)
-0.82,i,COc1ccc(C(CNC(=O)c2oc3ccc(OC)cc3c2C)N2CCCC2)cc1 (stereo not drawn)
-0.61,i,Clc1ccc(-c2csc(N3CCc4ccccc4C3)n2)cc1
2.77,i,O=C1c2ccccc2C(=O)N1CCC(O)C[N+](=O)[O-] (stereo not drawn)
-0.84,i,Cc1cc(N2C(=O)C=CC2=O)c([N+](=O)[O-])cc1C
1.54,i,Oc1oc(-c2ccccc2)nc1/C=N/c1ccccn1
-1.34,i,COc1ncccc1C(=O)N1CCCC(C(=O)c2cccc(OC(C)C)c2)C1 (stereo not drawn)
0.99,i,Cc1ccc(S(=O)(=O)N2CCN(c3ccc(S(=O)(=O)N4CCOCC4)cn3)CC2)cc1
0.01,i,CCn1c(SCC(=O)n2nc(C)cc2C)nnc1-c1ccc2c(c1)OCO2
-0.25,i,CCN(CC)C(=O)CCCc1c[nH]c2ccccc12
2.8,i,Cc1nn(C)c(C(=O)NNC(=S)NCc2ccccc2)c1Cl
0.14,i,Cn1c(=O)c2c(nc(OCc3ccc4c(c3)OCO4)n2Cc2ccccc2Cl)n(C)c1=O
0.21,i,COc1ccc(N2CCN(C(=O)Cc3ccc(Cl)cc3)CC2)cc1
-0.03*,-6.41*,Cc1ccc(NC(=O)c2cccc(C(=O)Nc3ccc(C)c(C)c3)n2)cc1C
-1.69,i,C=CCc1ccc(OCCOCCOc2cccc3cccnc23)c(OC)c1

Compounds shown so far that have a CF3 group (4):
KCNQ2 inh baseline,KCNQ2 inh,SMILES
2.59,i,O=S(=O)(/N=C(/Nc1ccccc1)C(F)(F)F)c1ccccc1
-0.41,i,CSc1ccccc1C(=O)NC1CCCN(c2ccc(C(F)(F)F)cn2)C1 (stereo not drawn)
1.29,i,O=C(Nc1cc(C(F)(F)F)ccc1N1CCCC1)c1ccc2c(c1)OCO2
1.31,i,Cc1ccc(C(F)(F)F)cc1NC(N)=S

The listing picks up with the three entries that preceded the break.
KCNQ2 inh baseline,KCNQ2 inh,SMILES
0.21,i,COc1ccc(N2CCN(C(=O)Cc3ccc(Cl)cc3)CC2)cc1
-0.03*,-6.41*,Cc1ccc(NC(=O)c2cccc(C(=O)Nc3ccc(C)c(C)c3)n2)cc1C
-1.69,i,C=CCc1ccc(OCCOCCOc2cccc3cccnc23)c(OC)c1
0.03,i,CCOc1ccc2nc3sc(C(=O)N4CCOCC4)c(N)c3cc2c1
-1.25,i,COc1ccc(-c2csc(-n3ncc(C(=O)O)c3C(F)(F)F)n2)cc1
-0.84,i,CC(=O)NCCC(=O)N1CCCC(CNC(=O)c2ccc(-c3ccccc3)cc2)C1 (stereo not drawn)
-0.59,i,O=C(NC(=S)Nc1ccc(CN2CCOCC2)cc1)c1ccc(-c2ccc(Br)cc2)o1
1,i,COc1cccc(NC(=S)Nc2cc(C(=O)O)ccc2N2CC3CC(C2)c2cccc(=O)n2C3)c1 (stereo not drawn)
0.03,i,COC(=O)CNC(=O)CSc1nc(N)cc(=O)[nH]1
0.5,i,COC(=O)C1C(=O)c2c(C)noc2CC1(C)C (stereo not drawn)
0.14,i,Cc1cc(C)nc(SCC(=O)Nc2ccnc3ccccc23)n1
1.46,i,O=C(Cc1ccc(NC2=NC3CS(=O)(=O)CC3S2)cc1)NCc1ccc(Cl)cc1 (stereo not drawn)
-1.68,i,Cc1ccc(S(N)(=O)=O)c(C)c1-n1cnnn1
0.65,i,CCCCNC1=C(Br)C(=O)CC(C)(C)C1
0.53,i,CC(C)(C)n1nnnc1C(c1ccncc1)N(Cc1ccccc1)Cc1ccco1 (stereo not drawn)
0.14,i,COc1ccccc1-n1cc(CN2CCCC(CO)(Cc3cccc(Cl)c3)C2)cn1 (stereo not drawn)
-0.98,i,CCOC(=O)CCCNC(=O)COC(=O)c1cc(C)cc(C)c1
-0.89,i,Cc1cnc(C(=O)OCC(=O)Nc2cc(-c3cc(C)c(C)cc3C)nn2-c2ccccc2)cn1
-0.45,i,CC(C)/C=N/NC(=O)c1cc(Br)ccc1O
-3.73,i,CCOC(=O)c1ccccc1NC(=O)Cc1ccccc1OC
-0.3,i,COc1ccccc1C(=O)NCCN1CCN(C(=O)c2ccccc2OC)CC1
0.72,i,O=[N+]([O-])c1ccc(Cl)c(/C=N/n2c(-c3cccnc3)n[nH]c2=S)c1
-0.87,i,CC1CCN(CC(=O)Nc2ccc(S(=O)(=O)N3CCC(C)CC3)cc2)CC1
0.63,i,Cc1ccc(OCc2nnc(NC(=O)c3ccco3)s2)cc1
-0.55,i,Cc1cccc(/C(N)=N/OC(=O)CCCc2ccccc2)c1
0.94,i,Nc1nnc(-c2ccccc2[N+](=O)[O-])o1
1.94,i,CCOc1cc(C(=O)N2CCN(c3ccccc3)CC2)cc(OCC)c1OCC
-0.88,i,CCn1c(=O)cc(SCC(=O)Nc2ccc(C)cn2)c2ccccc21
1.94,i,CC1CCCC(NC(=O)CN(C)S(=O)(=O)c2cccc3cccnc23)C1C (stereo not drawn)
-0.82,i,CCCCn1c(NCc2ccc(N(C)C)cc2)nc2ccccc21
-0.02,i,COc1ccc(S(=O)(=O)N2CCC(C(=O)NCCC(=O)NCc3cccc(OC)c3)CC2)cc1
-0.17,i,CCOc1ncccc1C(=O)OCC(=O)Nc1c(C)cc(C)cc1C
-0.01,i,C=CCn1c(CCC)nc2ccccc21

Ordered by length of the SMILES (high to low): part of the list above.
KCNQ2 inh baseline,KCNQ2 inh,SMILES
-0.84,i,CC(=O)NCCC(=O)N1CCCC(CNC(=O)c2ccc(-c3ccccc3)cc2)C1 (stereo not drawn)
0.03,i,COC(=O)CNC(=O)CSc1nc(N)cc(=O)[nH]1
0.5,i,COC(=O)C1C(=O)c2c(C)noc2CC1(C)C (stereo not drawn)

Single records, as listed above. Screens in order: KCNQ2 inh baseline	KCNQ2 inh
Entry for Cc1cc(C)nc(SCC(=O)Nc2ccnc3ccccc23)n1 : 0.14	i
Entry for CCOC(=O)c1ccccc1NC(=O)Cc1ccccc1OC : -3.73	i
Entry for O=C(Cc1ccc(NC2=NC3CS(=O)(=O)CC3S2)cc1)NCc1ccc(Cl)cc1 (stereo not drawn) : 1.46	i
Entry for COc1ccccc1-n1cc(CN2CCCC(CO)(Cc3cccc(Cl)c3)C2)cn1 (stereo not drawn) : 0.14	i
Entry for CCOc1ccc2nc3sc(C(=O)N4CCOCC4)c(N)c3cc2c1 : 0.03	i

Continuation:
KCNQ2 inh baseline,KCNQ2 inh,SMILES
-1.29,i,Cc1cccn2c(=O)c3cc(C(=O)NC4CCCCC4C)n(C)c3nc12 (stereo not drawn)
0.01,i,COC(=O)c1c(NC(=O)C2COc3ccccc3O2)sc2c1CCN(C(C)=O)C2 (stereo not drawn)
0.46*,-5.87*,CCCc1ccc(S(=O)(=O)N2CCN(Cc3ccco3)CC2)cc1
-1.13*,-7.87*,COc1ccc(OC)c(NC(=O)CN(Cc2ccc(F)cc2)C2CCCCC2)c1
2.05,i,COc1ccc(S(=O)(=O)N2CCN(Cc3cc(OC)c(OC)c(OC)c3)CC2)cc1
1*,-6.51*,S=C(Nc1ccccc1Cl)N1CCCC(c2ccccc2)=N1
-0.37,i,COCc1cc(=O)[nH]c(/N=C(\N)Nc2ccc(Cl)c(Cl)c2)n1
-0.04,i,CS(=O)(=O)Nc1cccc(C2=NN(C(=O)c3ccco3)C(c3ccco3)C2)c1 (stereo not drawn)
1.46,i,Cc1nn(C)c(C)c1CCC(=O)N1CCCC(C(=O)c2cccc(OC(C)C)c2)C1 (stereo not drawn)
-1.13,i,CC(C)(C(=O)Nc1nccs1)c1ccccc1
-0.16,i,Cc1cc(C)cc(OCc2nnc(SCC(=O)c3ccccc3)o2)c1
3.53,i,CC(NC(=O)CSc1ncccc1C(=O)O)C1CC2CCC1C2 (stereo not drawn)
2.54,i,O=c1[nH]c2c(cnn2-c2ccc(Cl)cc2)c(=O)n1-c1cccc(Cl)c1
-1.03,i,O=C(CN1CCN(c2ccccc2O)CC1)Nc1ccc2c(c1)CCC2
-1.73,i,CN(CC(=O)Nc1ccccc1C(F)(F)F)C(=O)C1=COCCO1
1.64,i,CCc1ccc(NC(=O)c2ccc(F)c(S(=O)(=O)N(CC)c3ccccc3)c2)cc1
0.81,i,N=c1oc2cc(O)ccc2cc1C(=O)Nc1ccc(F)cc1
-1.52,i,CCS(=O)(=O)N1Cc2ccccc2CC1C(=O)N1CCN(c2ccccc2)CC1 (stereo not drawn)
-3.46,i,Cn1c(=O)[nH]c(=O)c2c1nc(Br)n2CC(O)COc1ccccc1 (stereo not drawn)
-0.32,i,CCOCc1nnc(NC(=O)CS(=O)(=O)c2ccc(C)cc2)s1
1.45,i,COc1ccc([N+](=O)[O-])cc1C(=O)C(=O)c1ccccc1
-0.25,i,COc1cc(/C=C2\SC(=Nc3ccccc3)N(CCc3c[nH]c4ccccc34)C2=O)ccc1OC(C)C(=O)O (stereo not drawn)
-0.27,i,Cc1cc(C(=O)NNC(=O)c2cccc(N(C)C)c2)c(C)o1
0.31,i,Cc1cc(C(=O)NNc2ccc(F)cc2F)no1
0.82,i,Cc1c2c(nc3nc4ccccc4n13)CCCC2=O
-0.17,i,CCOc1ccc(-c2n[nH]c(C)c2-c2ccccn2)c(O)c1
0.36,i,N#CCCn1cc(/C=N/N=C2\NC(=O)C(CC(=O)O)S2)c(-c2ccc(F)cc2)n1 (stereo not drawn)

Assay outcomes as filed in PubChem.

These rows are one share of the data; count on the stated rates, not on these rows.
